Cruzain inh noDet: qHTS Assay for Promiscuous and Specific Inhibitors of Cruzain (without detergent) | purified cruzain, Z-FR-AMC fluorescence, no detergent | actives 2.3% (n = 200,000) | Potency, µM, inactives show max response, negative = inhibition, most hits filed as inhibitors | Cruzipain (Trypanosoma cruzi), P25779;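 also: plate controls were enzyme without inhibitor for no effect and buffer without enzyme for full effect; nearly all actives have a fitted effect of over 40% in size; top concentration of the series not given in the record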
Target sequence (P25779 123-467 limits assumed): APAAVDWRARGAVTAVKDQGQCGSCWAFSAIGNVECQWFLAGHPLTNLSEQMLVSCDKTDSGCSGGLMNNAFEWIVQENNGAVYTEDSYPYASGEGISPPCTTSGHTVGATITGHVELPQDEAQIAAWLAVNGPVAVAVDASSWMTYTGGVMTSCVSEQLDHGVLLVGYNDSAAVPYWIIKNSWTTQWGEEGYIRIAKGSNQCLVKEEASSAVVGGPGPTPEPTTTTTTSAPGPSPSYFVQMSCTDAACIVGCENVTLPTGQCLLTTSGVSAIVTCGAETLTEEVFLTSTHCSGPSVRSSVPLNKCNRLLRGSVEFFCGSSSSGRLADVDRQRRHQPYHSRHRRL
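Purified cruzain at 1.5 nM, pre-incubated 15 min with compound at room temperature in 100 mM sodium acetate pH 5.5, 5 mM DTT, 0.00005% Triton X-100. Reaction started with 2 uM Z-FR-AMC; AMC fluorescence increase over 60 s gives rate.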
RE007 growth inh: qHTS Assay for Inhibitors of the HIV-1 protein Vpr | S. pombe RE007 Vpr strain, BacTiter-Glo ATP luminescence, 24 h; control for the full effect not named in the record | Potency, µM (titrated, usually from 92.2 µM), for inactives: at the top dose activity change, negative = less growth | actives 0.21% (n = 360,000) | AID 651644, 2012; active = well fitted falling curve with a large enough effect; inconclusive = small, poorly fitted or top-dose-only effect; inactive = no such curve, though single readings can be large or run the other way;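 also: % is scaled to controls: 0 for no effect and ±100 for the full control effect; nearly all actives have a fitted effect of over 50% in size; the assay follows cell death caused by Vpr and the record does not say whether a fall means rescue or toxicity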
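Fission yeast strain RE007, carrying one chromosomally integrated HIV-1 vpr copy, was seeded at OD 0.01 in PMG+AL medium with 23 nL pinned compound. After 24 h at 30 °C and 99% humidity, viability was read by BacTiter-Glo luminescence.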
MARV entry inh: qHTS for inhibitors of binding or entry into cells for Marburg Virus | Marburg virus pseudotyped entry inhibition, cell reporter; control for the full effect not named in the record; about a third of the inactives were read at about 46 µM | Potency, µM (titrated, usually from 37.8 µM), for inactives: at the highest dose activity change, negative = inhibition, actives largely listed as inhibitors | actives 1.8% (n = 300,000); active = well fitted inhibition curve with a large enough effect; inconclusive = small, poorly fitted or top-dose-only effect, or effect the other way; inactive = flat fitted curve, though single readings scatter; tested in HEK293 cells; about a fifth of its hits are not listed in these tables; also: % is scaled to controls: 0 for no effect and ±100 for the full control effect; luciferase read-out
Cruzain Triton: qHTS Assay for Promiscuous and Specific Inhibitors of Cruzain (with detergent); AID 1478, 2009; actives 0.43% (n = 200,000); Potency, µM, for inactives: max response, negative = inhibition, actives largely listed as inhibitors; purified cruzain, Z-FR-AMC fluorescence, 0.01% Triton; Cruzipain (Trypanosoma cruzi), P25779;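 also: plate controls were neutral wells for no effect and buffer without enzyme for full effect; nearly all actives have a fitted effect of over 40% in size; top concentration of the series not given in the record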
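Z-FR-AMC hydrolysis (2 uM substrate) by cruzain (1.5 nM) monitored kinetically at ex 360/em 450 nm after 15 min room-temperature compound exposure; 0.01% Triton X-100, pH 5.5, 5 mM DTT.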
Lassa entry inh: qHTS for Inhibitors of binding or entry into cells for Lassa Virus; Potency, µM (doses to about 37.9 µM), without a hit: at the highest dose activity change, negative = inhibition, usual class: inhibitors; Lassa virus pseudotype entry inhibition, cell reporter; control for the full effect not named in the record; actives 1.2% (n = 300,000); AID 540256, 2011; active means well fitted inhibition curve with a large enough effect; inconclusive means small, poorly fitted or top-dose-only effect, or effect the other way; inactive means flat fitted curve, though single readings scatter; tested in HEK293 cells; also: % is scaled to controls: 0 for no effect and ±100 for the full control effect; nearly all actives have a fitted effect of over 50% in size; luciferase read-out
SARS PLpro yeast: qHTS of Yeast-based Assay for SARS-CoV PLP; S. cerevisiae expressing SARS-CoV PLpro, growth rescue; control for the full effect not named in the record; Potency, µM (series often up to 32.9 µM), for the others: at the highest dose activity, positive = growth rescue; actives 0.19% (n = 330,000); AID 485353, 2010; active means well fitted rising curve with a large enough effect; inconclusive means small, poorly fitted or top-dose-only effect; inactive means no such curve, though single readings can be large or run the other way; also: 0% is about no effect; nearly all actives have a fitted effect of over 55% in size; growth read by luminescence after 48 h
NS1 inh: qHTS Assay for Inhibitors of Influenza NS1 Protein Function | actives 0.4% (n = 270,000) | S. cerevisiae slowed by influenza A NS1, growth recovery by OD600 | Potency, µM (top dose mostly 46.1 µM), for the others: at the top dose activity, positive = more growth; active means well fitted rising curve with a large enough effect; inconclusive means small, poorly fitted or top-dose-only effect; inactive means no such curve, though single readings can be large or run the other way; also: nearly all actives have a fitted effect of over 50% in size
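Read-out: OD600 growth recovery of NS1-expressing budding yeast. Cells grown overnight at 30C in -URA glucose medium, washed, resuspended and diluted 1:100 in 2% galactose assay medium, pH 6.0. Same strain lacking NS1 served as positive control.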
StopGo reporter: High Throughput Screening for Foot and Mouth Disease Virus Antivirals; human cells with a luciferase reporter of 2A StopGo recoding; control for the full effect not named in the record; Potency, µM (titrated, usually from 57.9 µM), for inactives: at the highest dose signal change, negative = less light; actives 1.2% (n = 410,000); active = well fitted falling curve with a large enough effect; inconclusive = small, poorly fitted or top-dose-only effect; inactive = no such curve, though single readings can be large or run the other way; tested in HEK293T cells; also: % is scaled to controls: 0 for no effect and ±100 for the full control effect; nearly all actives have a fitted effect of over 45% in size; luciferase light after 4 h
Starred values were filed as active, the others as inactive; ? = inconclusive; nt = not tested or not shown; & = joins results of further samples; [ ] = dose if it differs, or a comment. Unless noted, calls follow the shape of the dose curve; as a rule, active = well fitted curve in the direction sought with a large enough effect; inconclusive = small, poorly fitted or top-dose-only effect, or another doubt; inactive = no such curve, though single readings can be large; an effect the other way counts as inactive or inconclusive. Potency is read from the fitted curve at half-maximal effect.

SMILES	Cruzain inh noDet	RE007 growth inh	MARV entry inh	Cruzain Triton	Lassa entry inh	SARS PLpro yeast	NS1 inh	StopGo reporter
COC(=O)c1sccc1NC(=O)/C=C/c1ccc(Cl)cc1	3%	-13%	?	-2.4%	14%	-1%	-5%	38%[activator]
O=C(O)c1nccnc1C(=O)Nc1ccc(S(=O)(=O)N2CCOCC2)cc1	nt	-18%	6%[46.1 µM]	nt	4%[46.1 µM]	-1%	-2%	-12%
COc1ccc(C(=O)NCCc2nnc(SCc3nc4ccccc4c(=O)[nH]3)n2C)cc1	-10%	9%	-2%	2.3%	-8%	3%	0%	7%
CC1(C)NC(=O)N(CC(O)COc2ccccc2C(=O)Nc2ccccc2)C1=O (stereo not given)	-11%	8%[3.69 µM]	3%&8%	1.8%	8%	3%	-2%	-9%
COc1ccc(NC(=O)CN2CCC(C)CC2)cc1	-4%	-5%	30%	-3.2%	40%[14.3 µM]	4%	6%	0%
O=C1c2ccccc2C(=O)N1CCCCN(C(=O)c1cccc([N+](=O)[O-])c1)c1ccc(Cl)cc1	1%	3%	?	0.2%	-37%	1%	-11%	-20%
CCN1CCN(c2cc(N3CCc4ccccc4C3)c(F)cc2[N+](=O)[O-])CC1	15%	2%	14µM*	-16%	?	-13%	-5%	-26%
Cc1cc(C(=O)CSc2nnc(N)s2)c(C)n1CCc1ccc(Cl)cc1	?	-2%	-30%	-1.1%	-4%	-5%	-2%	?
COc1ccc(S(=O)(=O)n2nc(OC(=O)c3ccc(C)cc3)cc2N)cc1	-26%	-8%	20%	-11%	-15%	5%	-11%	0%
Cc1ccc(CCC(=O)Nc2nccs2)o1	-4%	0%	14%	2.0%	14%	6%	3%	nt
CCOC(=O)CSc1nc2cc(C(=O)N3CCC(C(N)=O)CC3)ccc2c(=O)n1-c1ccccc1	?	-10%	5%	-7.8%	-17%	12%	-7%	22%
Cc1oc(-c2ccccc2F)nc1CSCC(=O)N1CCN(c2ccccc2)CC1	14%	nt	-27%[46.1 µM]	-2.0%	-13%[46.1 µM]	nt	nt	?
Cc1cc(NC(=O)COC(=O)c2ccc(NS(=O)(=O)c3ccc(C)c(C)c3)cc2)no1	-6%	1%	?	-7.8%	-19%	3%	8%	27%
COc1ccc(C2CN(C)CC2C(=O)c2ccc(F)cc2)cc1Cl (stereo not given)	nt	-1%	?	nt	5%	-1%	nt	1%
Cc1cc(=O)n2nc(N3CCC(C(=O)Nc4c(C)cccc4C)CC3)sc2n1	6%	nt	6%[46.1 µM]	-0.8%	11%[46.1 µM]	nt	nt	-3%
Cc1c(C(=O)NCCN(C)C)oc2ccc(S(=O)(=O)N3CCCC3)cc12	nt	-6%	?	nt	7%	0%	-19%	3%
COc1ccc(C)cc1NC(=O)Cn1cc(S(=O)(=O)N2CCC(C)CC2)c2ccccc2c1=O	-20%	nt	?	-8.0%	-22%[46.1 µM]	nt	nt	-2%
O=C(CN1CC(c2ccccc2)CC1=O)Nc1cccc(F)c1 (stereo not given)	1%	-13%	6%	1.8%	?	-19%	3%	15%
N#Cc1ccsc1NC(=O)CN1CCCCCC1	-4%	-23%	-4%	4.6%	5%	-1%	-4%	-12%
CCOc1ccc(NC(=O)c2cccc3ccccc23)cc1	nt	6%	nt	nt	nt	-4%	-12%	35%[activator]
Cc1nc2ccc(Br)cn2c1NC(C)(C)C	-10%	-3%	1%	-2.2%	1%	-5%	-6%	-4%
C=CCNC(=O)c1ccc2c3n(nc2c1)-c1ccc(C)cc1CO3	nt	-24%	nt	nt	nt	-3%	-68%	-19%
O=C(O)CCn1c(=O)sc2ccccc21	-3%	-2%	6%	7.4%	-3%	3%	-2%	24%
COc1ccccc1N1C(=O)CC(N2CCc3ccccc32)C1=O (stereo not given)	-7%	-7%	12%	-2.3%	0%	6%	?	21%
Cc1ccccc1C(=O)NC(=S)Nc1ccc(Oc2ccc(Cl)cc2)cc1	?	4%	-5%	3.9%	-16%	-4%	12%	?
SMILES	Cruzain inh noDet	RE007 growth inh	MARV entry inh	Cruzain Triton	Lassa entry inh	SARS PLpro yeast	NS1 inh	StopGo reporter
CC1=C(C(=O)OC2CCCC2)C(c2coc3ccccc3c2=O)C2=C(CCCC2=O)N1 (stereo not given)	nt	-3%	?	nt	-28%[46.1 µM]	-2%	nt	-5%
O=C(NCc1ccc(C(=O)N2CCC3(CC2)OCCO3)cc1)c1ccc2c(c1)OCO2	2%	-6%	2%	4.1%	3%	-1%	12%	-10%
CCOC(=O)c1c(C)[nH]c(C)c1S(=O)(=O)N1CCC(C(=O)N2CCN(c3ccc(F)cc3)CC2)CC1	?	nt	nt	-0.1%	-3%[46.1 µM]	nt	nt	-5%
CC(C)Nc1nc2ccccc2c(=O)[nH]1	nt	-21%	3%[46.1 µM]	nt	2%	-1%	-2%	5%
Cc1cc(C)c(S(=O)(=O)Nc2ccc(O)cc2)cc1C	1%	-3%	?	-0.6%	-19%	-12%	-1%	28%
O=S(=O)(c1cc(Cl)ccc1Cl)N1CCc2ccccc21	nt	-14%	nt	nt	nt	-5%	-36%	-17%
CCN1CCN(CC(c2ccccc2)c2ccccc2)CC1	nt	12%	0%	nt	-15%	2%	-3%	-16%
Nc1ccccc1SCC(=O)N1CCc2ccccc21	1%	-11%	?	-1.4%	14%	-2%	-11%	22%
O=C(CSc1nc2ccccc2c(=O)n1NC(=O)Cc1ccccc1)NCc1ccccc1	-2%	2%	-23%	7.6%	-10%	0%	-3%	16%
O=C(Nc1ccc(F)cc1)c1cccnn1	nt	-12%	nt	nt	nt	2%	-1%	3%
Cc1cccc(C)c1OC(=O)Cc1ccccc1	nt	-17%	4%&4%[46.1 µM]	nt	-3%	1%	nt	-9%
CCOC(=O)[C@H]1CCC[C@@H](NS(=O)(=O)c2ccc(NC(C)=O)cc2)C1	-5%	?	21%[46.1 µM]	-0.7%	?	-28%	-5%	-4%
Cc1cccc(CS(=O)(=O)Cc2ccc(C(=O)NCCN3CCCCC3C)o2)c1 (stereo not given)	-5%	-9%	-11%	7.3%	6%	4%	2%	-18%
Nc1cc(=O)nc(SCC(=O)Nc2cccc(Cl)c2)n1CCc1ccccc1	-21%	nt	-2%[46.1 µM]	-13%	9%[46.1 µM]	nt	nt	-20%
COCc1nc2ccccc2n1Cc1ccc(C(C)(C)C)cc1	?	nt	nt	-9.6%	23%[46.1 µM]	nt	nt	11%
CC(C)Oc1ccc(/C=C(/NC(=O)c2ccccc2)C(=O)NCCC(=O)O)cc1	nt	-13%	-3%[46.1 µM]	nt	11%[46.1 µM]	-4%	-38%	-10%
O=C(Nc1nc(-c2ccc(S(=O)(=O)N3CCCC3)cc2)cs1)c1ccco1	-22%	-2%	?	-10%	-20%	5%	-38%	?
O=c1[nH]cc(COCc2ccccc2)c(=O)[nH]1	-3%	13%	4%	2.8%	7%	-2%	9%	2%
CC(C)C(=O)Nc1cccc(NC2=NS(=O)(=O)c3ccccc32)c1	14%	nt	9%[46.1 µM]	-0.3%	20%[46.1 µM]	nt	nt	62%[activator]
N#CCSC1=Nc2ccccc2C2=NC(CCC(=O)N3CCN(c4ccccc4)CC3)C(=O)N12 (stereo not given)	3%	5%	-13%	-5.5%	-11%	6%	19%	17%
COc1ccc(CNc2c(CO)cnc3c2cnn3C)cc1	nt	-3%	10%[46.1 µM]	nt	?	0%	5%	-13%
O=C(COC(=O)c1cccc(S(=O)(=O)N2CCc3ccccc32)c1)Nc1ncc(C(F)(F)F)cc1Cl	-13%	-6%	-15%	-1.0%	-20%	-6%	2%	-15%
Cc1ccc(-c2cnc(SCC(=O)N3CCCc4ccccc43)n2C)cc1	-4%	6%	-8%	0.7%	17%	-1%	-149%	nt
CC(C)(C)S(=O)(=O)c1nc2ccccc2s1	-6%	0%	11%	1.8%	-1%	-7%	-16%	-8%
CCc1cccc(N(C(=O)c2csnn2)C(C(=O)NC(C)(C)C)c2ccncc2)c1 (stereo not given)	nt	7%	?	nt	-5%	0%	5%	12%
SMILES	Cruzain inh noDet	RE007 growth inh	MARV entry inh	Cruzain Triton	Lassa entry inh	SARS PLpro yeast	NS1 inh	StopGo reporter
CCOC(=O)C1C(=O)CC(C)(O)C(C(=O)OCC)C1c1cc(Br)ccc1OC (stereo not given)	?	-4%	?	0.6%	-24%	4%	16%	-14%
COCC(=O)N(c1ccc(C(C)C)cc1)C1C=CS(=O)(=O)C1 (stereo not given)	-9%	-3%	6%	-1.2%	4%	0%	2%	-16%
Cc1ccc(C(=O)Nc2ccc(S(=O)(=O)N3CCOCC3)cc2)cc1	nt	6%	?	nt	-29%	-1%	-4%	-15%
Cc1cc(S(=O)(=O)Nc2ccc(C(=O)NCCCn3ccnc3)cc2)ccc1F	nt	4%	25%	nt	-2%[46.1 µM]	nt	nt	-3%
CC1(C)Cc2c(c(N3CCOCC3)nc3sc(C(=O)Nc4ccc(Cl)cc4)c(N)c23)CO1	-6%	9%	?	-2.6%	17%&2%[46.1 µM]	-1%	11%	-18%&-8%
Cc1ccc(CNC(=O)COC(=O)CCC(=O)c2cccs2)cc1	nt	0%	3%[46.1 µM]	nt	6%	-2%	nt	6%
Cc1nn(-c2ccccc2)c(N2CCCC2)c1/C=C1\N=C(c2ccc(F)cc2)OC1=O	0.32µM*	-16%	3%	0.4µM*	14%	-11%	28%	-12%
COc1ccc(Cl)cc1NC(=O)c1c(NCc2cccs2)sc2c1CCC(C)C2 (stereo not given)	?	nt	nt	-5.6%	17%[46.1 µM]	nt	nt	14%
COc1ccc([C@@H]2C=C(C(=O)O)O[C@H](OCCCCO)C2)cc1	nt	6%	nt	nt	nt	-1%	-36%	2%
O=C(Nc1nccs1)c1c(O)c2c([nH]c1=O)CCCC2	nt	-3%	?	nt	18%[46.1 µM]	-1%	3%	40%[activator]
CCOC(=O)c1ccccc1NC(=O)c1sc2nc(-c3ccc(F)cc3)cn2c1C	-2%	nt	nt	0.3%	29%[46.1 µM]	nt	nt	4%
CCN(CC)C(=O)c1cccc2c1C(=O)c1ccccc1-2	1%	28%	-5%	-0.8%	-13%	?	-17%	8%

Screening results: PubChem BioAssay, National Center for Advancing Translational Sciences (NCATS)

This is a random part of the collection (roughly 4.6% active in at least one column).
